# Screens deposited in PubChem BioAssay by ICCB-Longwood Screening Facility, Harvard Medical School.
# AID504770 – growth inhibitors of E. coli YBA685 in a screen for V. cholerae RctB (chromosome II replication) inhibitors | E. coli YBA685 rctB-dependent plasmid, OD600 growth, 3 h; active compounds read low | z-score (concentration not given with the values) | 130,000 compounds, 0.27% hits | AID 504770;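 active = z-score under -2 on both plates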;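 note: wells of about 30 µL received 100 nL stock; score is relative to mean and SD of the test wells; the first replicate is given; strong numbers were not always called active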
# Ba CapD inh – blocks the Bacillus anthracis CapD enzyme | AID 492967 | z-score (no concentration beside the values) | purified CapD enzyme, fluorescence intensity read-out; active compounds read low; some hits fall short of the stated cut | 140,000 compounds, 0.23% hits;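 active = z-score under -4 in either of two replicates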;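 note: stock transfer was 100 nL into about 40 µL; score is relative to mean and spread of the plate; one replicate is shown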
# An asterisk follows results filed as active; i = inactive; . = no result given.
SMILES,AID504770,Ba CapD inh
COc1ccc(NC(=O)c2ccc(Cl)c(S(=O)(=O)N3CCc4ccccc4C3)c2)cn1,1.9,.
COc1cccc(CN2C(=O)c3ccccc3C(C(=O)O)C2c2cccc(OC)c2O)c1 (configuration not stated),0.35,0.045
CCCCC1CCC(C(=O)NC(C(=O)O)C(C)C)CC1 (configuration not stated),-0.75,-0.17
CCc1ccc(CNC(=O)CCC(=O)n2ncc3ccccc32)cc1,-0.6,0.16
COC(OC)c1[nH]c(=S)ncc1C(=O)O,-1.3,-4.1
C=CCN(C(=O)CSc1nc2[nH]ncc2c(=O)n1-c1ccccc1)c1ccccc1,1.6,-0.1
O=C(NCc1cccs1)c1cnn2c(C(F)(F)F)cc(-c3ccc(Br)cc3)nc12,.,-0.61
CCOC(=O)c1ccc2c(c1)N(CC)C(=O)c1ccccc1S2,-0.1,-1.5
Cc1cc2oc(=O)cc(-c3ccccc3)c2c(O)c1CN1CCOCC1,-0.25,-0.11
COc1ccc(OCC(O)Cn2c(NCc3ccco3)nc3c2c(=O)n(C)c(=O)n3C)cc1 (configuration not stated),.,-0.04

# The closing 5 records of the section before are carried over, then new ones follow.
SMILES,AID504770,Ba CapD inh
C=CCN(C(=O)CSc1nc2[nH]ncc2c(=O)n1-c1ccccc1)c1ccccc1,1.6,-0.1
O=C(NCc1cccs1)c1cnn2c(C(F)(F)F)cc(-c3ccc(Br)cc3)nc12,.,-0.61
CCOC(=O)c1ccc2c(c1)N(CC)C(=O)c1ccccc1S2,-0.1,-1.5
Cc1cc2oc(=O)cc(-c3ccccc3)c2c(O)c1CN1CCOCC1,-0.25,-0.11
COc1ccc(OCC(O)Cn2c(NCc3ccco3)nc3c2c(=O)n(C)c(=O)n3C)cc1 (configuration not stated),.,-0.04
CCOc1cc(C2C3=C(CC(C)(C)CC3=O)N(C)C3=C2C(=O)CC(C)(C)C3)ccc1OCc1ccccc1,.,-0.12
Cc1cccc(N2CCN(C(=O)CCC(=O)N3CCOc4ccc(Cl)cc43)CC2C)c1 (configuration not stated),0.7,0.26
CCOC(=O)c1cnn2c1nc(Oc1cc(C(F)(F)F)cc(C(F)(F)F)c1)c1ccccc12,-1.5,75
COc1ccc(SCC(=O)Nc2ccc(N3CCN(C)CC3)c(F)c2)cc1,.,0.41
Cc1ccc(/C=N/NC(=O)c2ccc(S(N)(=O)=O)cc2)s1,.,-1.3
O=S1(=O)CCN(Cc2ccccn2)CC1,0.15,0.32
Cn1nc(C(C)(C)C)cc1C(=O)Oc1ccc(C(F)(F)F)cc1,1.1,0.03
CC(=O)Nc1ccc2[nH]c(C)c(C)c2c1,1.2,2
CC(C)NC(=O)C1(c2ccccc2)CCCC1,.,0.02
O=C1CCN(c2ncc(C(F)(F)F)cc2Cl)CC1,-0.3,0.08
Cc1ccccc1OCCn1c(=S)[nH]c2ccccc21,2.5,-0.67
O=c1nc2cccc3c2=c(/c1=C(\O)c1ccccc1)c1ccccc1c3=O,.,-0.26
Cn1c(SCC(=O)NCc2cccnc2)nnc1-c1sc2ccccc2c1Cl,-0.3,-0.29
C=CCn1cnc2c1c(=O)[nH]c(=O)n2C,0,0.19
CN(C)S(=O)(=O)c1ccc(C(=O)Nc2c3c(nn2C(C)(C)C)CS(=O)C3)cc1 (configuration not stated),.,-0.02
O=C(Nc1nc(-c2cccs2)cs1)c1ccc(N2C(=O)CCC2=O)cc1,0.25,i
O=C(c1ccno1)c1cc(F)ccc1O,-1.5,-0.35
O=C(COC(=O)C12CC3CC(CC(Cl)(C3)C1)C2)c1ccccc1,0.25,-0.92
CCN1C(=Nc2ccc(Cl)cc2)SC/C1=C\C(=O)OC,-0.15,.
Cc1ccc(N2C(=O)NC(=O)/C(=C/c3ccc(-c4cccc(C(=O)O)c4)o3)C2=O)cc1,.,1.7
O=C(O)CCc1ccc(-c2ccccc2)n1CCC(=O)O,-0.8,-0.02
Cc1ccc(Nc2nc3nonc3nc2NCCc2ccccc2)cc1C,.,0.27
N#CC1=C(N)S[C@@H](C(=O)c2ccccc2)[C@@H]1c1cccnc1,.,-0.39
CCC(C)CNC(=O)c1ccc(OC)c(OC)c1 (configuration not stated),1.4,0.42
CCc1ccc(OCCSc2nc3ccccc3n2CCC(=O)O)cc1,.,-0.33
COC(=O)c1ccc(S(=O)(=O)NCCNc2ncc(Cl)cc2C(F)(F)F)n1C,-0.65,19
Cc1cc(C(=O)CSc2ccc(S(=O)(=O)N(C)C)cn2)c(C)n1CCc1cccs1,1.2,.
CCOc1ccc(C(=O)NCC(=O)NC2CCN(Cc3ccccc3)CC2)cc1,-0.3,.
COc1ccccc1Cn1c(=S)[nH]c2cc(C(=O)NCCN3CCOCC3)ccc2c1=O,-0.5,0.01
Cc1ccc(C)n1-c1ccsc1C(=O)CC#N,-0.85,-0.95
COC(=O)/N=C/c1c(NCc2ccccc2)nc2c(C)cccn2c1=O,-0.05,.
O=C(NC1CCCCC1)C1CC(c2ccccc2F)=NO1 (configuration not stated),0.2,0.54
Cc1ccc(S(=O)(=O)Nc2ccc(N3CCOCC3)c(Cl)c2)cc1,.,-0.39
COc1ccc(C2OC(=O)CC2C(=O)N2CCN(c3cc(Cl)ccc3C)CC2)cc1OC (configuration not stated),-0.85,-0.26
CN(Cc1cccs1)C(=S)SCCO,0,-0.47
O=C(C(F)F)N(Cc1ccccc1)Cc1ccccc1,-0.7,.
CCc1cc2c(C)cc(=O)oc2c2c1OCC2=O,2.1,10
CC1CC(C)CN(c2ncnc3c2cnn3C)C1 (configuration not stated),0.4,.
CN1CCCN(S(=O)(=O)c2c(F)cccc2F)CC1,.,-0.65
COc1cc(CNCc2ccco2)cc(Cl)c1OC,-0.5,.

# Entries of single compounds from above. Order of values: AID504770	Ba CapD inh
# `O=C(C(F)F)N(Cc1ccccc1)Cc1ccccc1` reads -0.7	.
# `Cc1ccc(/C=N/NC(=O)c2ccc(S(N)(=O)=O)cc2)s1` reads .	-1.3
# `CC(C)NC(=O)C1(c2ccccc2)CCCC1` reads .	0.02
# `COc1cc(CNCc2ccco2)cc(Cl)c1OC` reads -0.5	.
# `COc1ccc(OCC(O)Cn2c(NCc3ccco3)nc3c2c(=O)n(C)c(=O)n3C)cc1` (configuration not stated) reads .	-0.04

# (continued)
SMILES,AID504770,Ba CapD inh
CC1CN(C(=O)C(C)OC(=O)c2ccc3ncsc3c2)CC(C)O1 (configuration not stated),-0.2,.
C=CCc1ccccc1OCC(O)CN(CC)CC (configuration not stated),-1.1,0.7
CCCn1c(C(=O)OC)cc2c1ccn2C,-0.8,.
NC(=O)C1CCN(C(=O)c2ccc3c(=O)n(-c4ccc(F)cc4)c(SCC(=O)c4ccc(Cl)cc4)nc3c2)CC1,.,-0.15
CC(C)(C)OC(=O)NCC12C=CC(O1)C1C(=O)N(Cc3ccccc3)C(=O)C12 (configuration not stated),-0.6,-0.01
CCOC(=O)C1CCN(c2nnc(N3CCCC3=O)s2)CC1,1.1,-0.53
COC(=O)C1SCCN1C(=O)c1cc(-c2ccc(Cl)cc2)oc1C (configuration not stated),0.4,9.9
O=C1CCC(=O)N1CC(=O)N1CCCc2ccccc21,0.25,.
O=C(/C=C/c1ccc2ccccc2n1)N1CCN(S(=O)(=O)c2ccc3c(c2)OCCCO3)CC1,0.3,.
Brc1cnc(N2CCN(C(c3ccccc3)(c3ccccc3)c3ccccc3)CC2)nc1,.,-0.53
CCOC(=O)C1=CN(Cc2ccc(OC)cc2)C=C(C(=O)OCC)C1c1cc(OC)c(O)c(OC)c1,.,5
c1ccc(-c2ccc3c(c2)c2c4n3CCN=C4CCC2)cc1,-0.45,7.7
O=c1[nH]c(CN2CCN(CCO)CC2)nc2ccccc12,-0.55,0.44
Cc1coc2cc3oc(=O)c(CCC(=O)NCCc4ccccc4)c(C)c3cc12,-0.6,7.2
O=C(c1ccccc1)n1ccc(-c2cccs2)n1,-0.25,-0.64
O=C(CCn1c(=O)c2ccccc2n(CC(=O)Nc2ccccc2)c1=O)NCCc1ccccc1,-0.85,-5.6*
O=C(OCCN1CCCCCC1)N1CCN(C(c2ccccc2)c2ccc(Cl)cc2)CC1 (configuration not stated),.,-0.91
Cc1cc2nc(-c3ccccc3)c(-c3ccccc3)nc2cc1C,.,-0.21
O=C(Nc1cccnc1)c1nn2c(C(F)(F)F)cc(-c3ccco3)nc2c1Br,.,-0.34
CCN(CC)C(=O)Oc1ccc2ccccc2c1Br,-0.8,-0.055
O=c1nc(-c2ccc(Cl)cc2)oc2ccccc12,0.05,0.26
O=C(CN1CCc2ccccc21)Nc1scc2c1c(=O)oc1ccccc12,0.4,2
COc1ccccc1NC(=O)NC(N)=O,-0.6,0.52
O=C1C2C3C=CC(O3)C2C(=O)N1c1ccc(Br)cc1[N+](=O)[O-] (configuration not stated),.,-0.05
C=CCn1c(=N)n(CC(=O)c2ccc(OC)cc2)c2ccccc21,-0.1,0.015
COc1ccc(-c2nc3ccc(C(=O)NC4CC4)cc3nc2-c2ccc(OC)cc2)cc1,-1.1,14
C=CCn1c(=O)c2ccccc2n2c(SCC(=O)Nc3sc(C)c(CC)c3C(=O)OCC)nnc12,-0.1,.
CC1CCc2nc(NC(=O)Nc3cccnc3)sc2C1 (configuration not stated),0,.
Cc1ccc(NC(=O)c2[nH]c3c(c2C)C(=O)CC(c2ccc(C(C)(C)C)cc2)C3)cc1C (configuration not stated),-0.3,-0.09
COCC(=O)NCc1nc2ccccc2n1Cc1ccccc1C,0.2,-0.6
N#Cc1c(N)oc(-c2ccc3c(c2)OCO3)c1-c1ccc2c(c1)OCO2,-0.75,.
CSc1nc2cc(F)c(F)cc2n1C,-0.25,-0.4
COc1cccc(CSc2ccc(S(=O)(=O)N3CCOCC3)cc2C(=O)NCc2ccc3c(c2)OCO3)c1OC,.,-0.49
CCOC(=O)C1=C(N)OC2=C(C(=O)CC(C)(C)C2)C1c1ccc(OCc2ccccc2)cc1 (configuration not stated),.,-1
N#Cc1ccc(-c2ccc(Cl)c(Cl)c2)n(Cc2ccccc2Cl)c1=O,.,5.5
CCOCCCn1c(CC(N)=O)n[nH]c1=S,-1.1,.
Cc1cc(NC(=O)CSc2nc3c(c(=O)n2-c2ccc(F)cc2)SC(C)C3)no1 (configuration not stated),1,-0.55
c1ccc(C2NCCn3cccc32)cc1 (configuration not stated),2.5,-0.32
COC(=O)c1ccc2c(=O)n(CCc3ccc(S(N)(=O)=O)cc3)c(SCC(=O)Nc3cccc(OC)c3)nc2c1,.,0.27
O=C(c1cc(Cl)cc(Cl)c1)N1c2ccccc2Sc2ccc(C(F)(F)F)cc21,.,-0.3
Cc1ccc(CC(=O)NC(C)C2CCCO2)cc1 (configuration not stated),-0.7,0.24
Cc1cc(=O)[nH]c(SCc2nc3ccccc3[nH]2)n1,-0.65,4.1
C[N+](C)(C)C/C=C1/COCO1,-0.1,0.3
C=C(C)C(CC=C(C)C)COC(=O)NC(Cc1c[nH]c2ccccc12)C(=O)OCc1ccccc1 (configuration not stated),.,-0.7
Cc1c(C)c(C)c(CC#N)c(C)c1C,-0.25,0.72
Cc1ccc(Cn2ccsc2=NC(=O)COC(=O)c2ccc3c(=O)n4c(nc3c2)CCC4)cc1,-0.15,.
O=C1NNC(c2ccccc2)=N/C1=C\c1ccc(Cl)cc1,-0.15,-0.66
N#Cc1c2n(c(=O)n(-c3ccc(Cl)cc3)c1=N)CCC2,1,.
O=C1C=CC(=O)N1CC1CCCO1 (configuration not stated),-0.55,-0.77
CCc1ccc(N2Cc3ccccc3C2=N)cc1,-0.25,-0.1

# Next section
SMILES,AID504770,Ba CapD inh
COc1cc(OC)nc(Oc2ccccc2-c2ccn(C)n2)n1,.,-0.38
COC(=O)c1sc2cc(-c3ccc(F)cc3)sc2c1C,0,30
C=CCC1CCCCC1NC1CCCCC1 (configuration not stated),-0.95,-0.085
CC(C)OC(=O)Cn1c(C2CC2)nc2ccccc2c1=O,1.3,.
O=C(c1ccc(Cn2c(=O)[nH]c3ccccc3c2=O)cc1)N1CCN(c2ccccc2)CC1,1.2,0.56
CC1CC(C)(C)CC1(C#N)Nc1ccc(CC#N)cc1 (configuration not stated),-0.15,0.77
Nn1c(SCCCC(=O)c2ccc(F)cc2)nnc1-c1cccnc1,1.7,.
CC(C)(C)C(=O)CSc1nnc(Nc2ccccc2)s1,0.25,.
CCCc1cc2c(c(NC(C)=O)n1)c(=O)oc1ccccc12,-0.25,6.2
O=C(O)c1ccc(Cl)s1,0.25,-0.4
COC(=O)c1cc2n(n1)CCCNC2=O,-0.3,0.28
CCOC(=O)Cc1cc(=O)[nH]c(/N=C(\N)Nc2ccc(C)cc2C)n1,0.9,0.34
Cn1nc(C(F)(F)F)c2cc(C(=O)Nc3ccc(F)cc3)sc21,0.6,0.46
COc1ccc(N2CCN(c3ncnc4c3cnn4-c3ccc(OC)cc3)CC2)cc1,.,-0.41
COc1ccc2[nH]cc(CCNC(=O)OCCCc3ccccn3)c2c1,.,-0.04
O=S(=O)(NC1CCCCCC1)c1ccc(Br)cc1,.,0.3
CC(N)C(=O)OCc1ccccc1 (configuration not stated),-0.85,2
CCCCn1c(CNC(=O)c2ccccc2OC)nnc1SCC(=O)Nc1sc2c(c1C(=O)OCC)CCC2,.,-0.52
COc1cc(OC)nc(-c2ccc(-c3ccccc3)cc2)n1,.,-0.61
Cc1nnc(/N=C/N(C)C)s1,.,-0.36
O=C(Nc1cc2c(oc1=O)CCCC2=O)c1ccccc1,1.2,-0.5
CCCCC(=Nc1ccccc1)C1=C(O)CCCC1=O,0.1,0.12
CSc1sc(C(=O)OC(C)C)c2c1C(=O)CC(C)(C)C2,0.1,0.34
CCOC(=O)c1c(NC(=O)CSc2nc3ccccc3[nH]2)sc2c1CCC2,.,0.98
O=[N+]([O-])c1ccc(Sc2c(Cl)cccc2Cl)c(Br)c1,.,-1.1
CC(=O)Nc1ccc(S(N)(=O)=O)cc1,-0.35,0.03
Cc1cccc2c1N(C(=O)Cc1ccccc1)C(C)(C)CC2(C)c1ccccc1 (configuration not stated),.,-0.015
